HSV replic up – HSV replication enhancement. 0.005% of 220,000 active. maximum fold increase. AID 1956. HSV replication augmentation in cells, fold increase;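 active = peak rise of 1.5-fold or more in the series; tested in PC3 cells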;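 note: first round at 10 µM; read as green reporter fluorescence; hits show the peak of a series up to 25 µM; 1 = signal of infected wells without compound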
RGS16-Gao – regulators of human RGS16-Galphao interaction; O15492+P09471; bead-based flow cytometry RGS16-Galphao binding, fluorescence; actives lie on both sides; binding response (% of control), % at 10 µM; 0.38% of 220,000 active;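 active = below 25% or above 175%, edge rows of some plates excepted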;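 note: Galphao activated by GDP with aluminum fluoride before binding; 100% = wells without compound and 0% = beads without RGS; some results beyond the cut were filed as inactive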
Target sequence (O15492 whole entry, looked up): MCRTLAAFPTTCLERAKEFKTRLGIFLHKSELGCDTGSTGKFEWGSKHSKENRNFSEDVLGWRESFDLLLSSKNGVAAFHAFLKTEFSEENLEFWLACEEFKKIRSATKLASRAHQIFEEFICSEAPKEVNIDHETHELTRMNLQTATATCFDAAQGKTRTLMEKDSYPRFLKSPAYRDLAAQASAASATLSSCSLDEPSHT
Target sequence (P09471 whole entry, looked up): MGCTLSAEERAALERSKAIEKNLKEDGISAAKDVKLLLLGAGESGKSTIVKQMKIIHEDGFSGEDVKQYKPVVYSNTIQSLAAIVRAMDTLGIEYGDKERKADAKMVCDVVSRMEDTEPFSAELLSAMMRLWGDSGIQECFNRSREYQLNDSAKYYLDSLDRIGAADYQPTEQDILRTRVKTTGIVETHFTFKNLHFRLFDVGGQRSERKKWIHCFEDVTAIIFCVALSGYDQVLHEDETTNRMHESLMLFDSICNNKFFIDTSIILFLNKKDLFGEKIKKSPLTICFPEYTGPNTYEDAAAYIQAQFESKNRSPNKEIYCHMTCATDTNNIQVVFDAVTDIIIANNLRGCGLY
GALR2 agonist – agonists of human galanin receptor 2 (GALR2) | O43603 | GALR2-expressing cells, agonist activation read-out | activation, %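 (tested at 5 µM)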 | 0.48% of 140,000 active;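 active = above mean plus 3 SD of all compounds, about 5% in these data, not always enough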;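 note: 0% = vehicle buffer wells and 100% = reference agonist at full effect; tested in CHO reporter cells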
Target sequence (O43603 whole entry, looked up): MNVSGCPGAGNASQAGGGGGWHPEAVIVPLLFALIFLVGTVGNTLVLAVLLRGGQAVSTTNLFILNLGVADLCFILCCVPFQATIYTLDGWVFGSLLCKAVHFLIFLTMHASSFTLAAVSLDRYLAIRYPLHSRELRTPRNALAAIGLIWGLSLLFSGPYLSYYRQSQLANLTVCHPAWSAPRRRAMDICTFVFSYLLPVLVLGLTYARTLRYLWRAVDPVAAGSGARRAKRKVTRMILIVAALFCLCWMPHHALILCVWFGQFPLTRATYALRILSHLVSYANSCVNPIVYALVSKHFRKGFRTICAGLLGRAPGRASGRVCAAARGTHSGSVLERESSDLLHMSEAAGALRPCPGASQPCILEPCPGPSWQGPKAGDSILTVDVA
INS promoter inh – TRM-6 insulin promoter activity inhibition; TRM-6 cells (human fetal islet line), insulin promoter-eGFP reporter, imaging; reporter expression induced with tamoxifen; inhibition, % at 2 µM; 0.9% of 130,000 active; AID 1273;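 active = inhibition above the mean plus 3 SD, with well images judged a real hit on visual review, cut at about 60% in these data, passing the limit was not always enough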
PKD1 kinase inh – blocks activity of human protein kinase D1; 0.056% of 200,000 active; inhibition, %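 (about 10 µM by stock and volumes)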; Q15139; AID 797; PKD1 kinase fluorescence polarization assay;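 active = inhibition of 50% or more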;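 note: controls were vehicle for no effect and a reference inhibitor for full effect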
INS promoter inh cell count – recorded beside INS promoter inh, whose call it bears; normalized cell count, %; measured here: cell count, toxicity; reference of the scale not given here;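 cells exposed to compound for 48 h; stained nuclei by imaging scaled within each plate; lower means fewer cells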
HSV replic up primary fold – further read-out of HSV replic up, marked with its call; fold increase; compound at 10 µM; measured here: primary screen fold increase 10 uM; tested in PC3 cells;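 GFP signal in the first replicate; 1 = infected wells without compound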
An asterisk follows results filed as active; i = inactive; x = not tested or not shown. Rows were taken by chance. Share with any hit: about 1.2%.

structure | HSV replic up | HSV replic up primary fold | RGS16-Gao | GALR2 agonist | INS promoter inh | INS promoter inh cell count | PKD1 kinase inh
C/C(CC(=O)NC(C)(C)C)=N\NC(=O)COc1ccc(C)cc1Br | i | 0.92 | 92 | x | 6 | 123 | -11
O=C(Nc1ccccc1Cl)c1c(F)c(F)c(F)c(F)c1F | i | 1 | x | -2.4 | -3 | 64 | -13
COC(=O)N/N=C/c1c[nH]c2ccccc12 | i | 1 | 109 | -0.8 | 13 | 57 | 5
CN(C)CCNC=C(C(=O)Nc1ccc(Cl)cc1Cl)C(=O)Nc1ccc(Cl)cc1Cl | i | 0.79 | 104 | -3.1 | 30 | 121 | -6
COc1ccc(-n2c(C)c(C(=O)O)c3cc(OC)c4ccccc4c32)cc1 | i | 1.1 | 96 | x | x | x | x
CC1CCN(c2cc(=O)n(C3CCCCC3)c(=O)[nH]2)CC1 | i | 0.87 | 105 | -2.0 | x | x | -6
COc1cc(O)c(/C=N/NC(=O)c2ccncc2)c(OC)c1[N+](=O)[O-] | i | 0.91 | 91 | x | x | x | -7
COc1cc2c(C(=O)OCCN(C)C)c(CSc3ccccc3)n(C)c2cc1Br | i | 0.94 | 113 | x | -80 | 90 | -1
Cc1nn(C)c(C)c1CNC(=O)Nc1cccc(Cl)c1C | i | 0.94 | 107 | x | x | x | -6
CC(C)(C)NCC(O)CON=C1c2ccccc2-c2ccccc21 (stereo unspecified) | i | 0.63 | 102 | x | x | x | 2
NC(=O)C1CCN(C(=O)COc2ccc3ccccc3c2)CC1 | i | 0.82 | 226 | 0.6 | 19 | 125 | 7
O=c1c2ccccc2nc2c3ccccc3ncn12 | i | 0.88 | x | -1.5 | 23 | 145 | 0
Cc1ccc(OCC(=O)Nc2ccccc2F)cc1C | i | 1 | 108 | x | x | x | -5
CN(c1ccccc1)S(=O)(=O)c1ccc(NC(=S)Nc2ccccc2)cc1 | i | 0.93 | 99 | -3.7 | 26 | 96 | -4
CCNc1ccc(Br)cc(C(=O)/C=C/c2ccc(Cl)cc2Cl)c1=O | i | 0.9 | 86 | -1.9 | -25 | 229 | -10
COCCNC(=O)/C(C#N)=C/c1ccc(OCc2ccccc2)cc1 | i | 0.88 | 106 | x | -43 | 66 | -6
COc1ccccc1NS(=O)(=O)c1cccc(C(=O)N/N=C/c2cn(-c3ccccc3)nc2-c2ccccc2)c1 | i | 0.82 | 102 | -1.4 | -36 | 127 | 7
O=C(Nc1cccc(C(F)(F)F)c1)/C(=C\c1ccco1)NC(=O)c1cccs1 | i | 0.99 | 104 | -1.5 | -7 | 164 | -9
O=C(NCCN1CCOCC1)C1CCN(S(=O)(=O)N2CCCCC2)CC1 | i | 0.81 | 101 | -2.5 | x | x | 1
CC(C)C(NC(=O)c1cccs1)c1nnc(SCC(=O)Nc2nccs2)n1C (stereo unspecified) | i | 0.97 | 108 | -1.9 | -5 | 74 | -4
CC(C)(C)C(=O)OCc1nc(-c2ccc(O)c(O)c2)cs1 | i | 0.8 | 104 | x | x | x | x
NS(=O)(=O)c1ccc(CNC(=O)c2cc(-c3ccccn3)nc3ccc(Cl)cc23)cc1 | i | 1 | 96 | x | x | x | -2
COc1ccc(NC(=S)NCCc2ccccc2OC)c(OC)c1 | i | 0.95 | 94 | -2.4 | 12 | 71 | -2
CCOC(=O)CSc1nc(Cc2ccccc2)nc2ccccc12 | i | 0.94 | 92 | x | x | x | 4
O=C(COC(=O)C(c1ccccc1)c1ccccc1)NCc1ccco1 | i | 0.84 | 102 | x | -83 | 183 | -11

3 compounds out of the list, ordered by molar mass, rising.
structure | HSV replic up | HSV replic up primary fold | RGS16-Gao | GALR2 agonist | INS promoter inh | INS promoter inh cell count | PKD1 kinase inh
NC(=O)C1CCN(C(=O)COc2ccc3ccccc3c2)CC1 | i | 0.82 | 226 | 0.6 | 19 | 125 | 7
O=C(COC(=O)C(c1ccccc1)c1ccccc1)NCc1ccco1 | i | 0.84 | 102 | x | -83 | 183 | -11
C/C(CC(=O)NC(C)(C)C)=N\NC(=O)COc1ccc(C)cc1Br | i | 0.92 | 92 | x | 6 | 123 | -11

Next results.
structure | HSV replic up | HSV replic up primary fold | RGS16-Gao | GALR2 agonist | INS promoter inh | INS promoter inh cell count | PKD1 kinase inh
Cc1nc(NC(=O)CN2CCOCC2)sc1-c1ccccc1 | i | 0.92 | 117 | -2.7 | x | x | -6
O=C(c1cnn2c(C(F)(F)F)cc(-c3ccccc3)nc12)N1CCCc2ccccc21 | i | 0.97 | 98 | -4.2 | -32 | 58 | -5
O=C(Nc1ccc(Cc2ccncc2)cc1)c1ccc(Br)o1 | i | 1.1 | 99 | -2.6 | -288 | 41 | -6
CCc1[nH]nc2c1C1(C(=O)N(Cc3ccccc3)c3ccccc31)C(C#N)=C(N)O2 (stereo unspecified) | i | 0.73 | 106 | -2.4 | 31 | 125 | 0
COc1ccc(OC)c2c(C)cc(C)nc12 | i | 0.91 | 97 | -0.4 | 50 | 136 | 1
COc1ccc(OC)c(CCNC(=O)CC2Oc3ccccc3NC2=O)c1 (stereo unspecified) | i | 0.95 | 115 | -0.7 | x | x | 2
COc1ccccc1-c1cc2ccccc2[nH]1 | i | 0.89 | 69 | -1.6 | -53 | 75 | 0
Cc1cccnc1NC(=O)Nc1ccccc1 | i | 0.9 | 98 | x | x | x | x
C/C=C/c1ccc(OCCCCN2CCN(CC)CC2)c(OC)c1 | i | 0.93 | 102 | x | x | x | 3
CN1C(=O)NC2(O)C(=O)c3ccccc3C12O (stereo unspecified) | i | 1 | 105 | -2.7 | -73 | 108 | -4
CCOc1ccc2[nH]c(=O)c(CN(Cc3ccco3)Cc3nnnn3Cc3ccccc3)cc2c1 | i | 0.78 | 76 | -0.1 | x | x | -9
CCc1nnc(NC(=O)c2ccc3ccccc3n2)s1 | i | 0.92 | 108 | x | 48 | 39 | -7
COc1ccc(CCN2C(=O)C3C4CC(C5C(C(=O)O)=NOC45)C3C2=O)cc1OC (stereo unspecified) | i | 1.1 | 111 | -1.8 | 17 | 108 | -9
CCN1CCN(C(=O)C(C)N(c2ccc(C)cc2)S(C)(=O)=O)CC1 (stereo unspecified) | i | 0.98 | 110 | -2.6 | 31 | 102 | 8
CCCn1c(SCC(=O)Nc2nc(C)cs2)nnc1-c1cccnc1 | i | 0.97 | 102 | -2.0 | 75* | 139* | -11
O=c1cc(CSc2nnnn2-c2ccccc2)nc2nc[nH]n12 | i | 0.95 | 96 | -0.1 | -500 | 28 | -3
CC(C)c1ccc(C(N)=S)cc1 | i | 0.95 | 102 | x | -17 | 132 | -1
COc1ccc(CNC(=O)COC(=O)/C=C/c2ccc(S(=O)(=O)N3CCOCC3)cc2)cc1 | i | 0.95 | 98 | x | x | x | -6
Cc1noc(C)c1CSCc1ccc(Cl)cc1 | i | 0.88 | 109 | x | x | x | 0
CC(C)(S)[C@@H](N)C(=O)O | x | x | 94 | -1.4 | -5 | 62 | -9
COC(=O)c1ccc2c(c1)C(C)(C)C(/C=C/c1ccccc1O)=[N+]2C | i | 0.87 | 84 | 13* | -20 | 104 | -17
CNC(=O)CSc1nnc(-c2ccccc2F)n1CCc1ccccc1 | i | 1 | 99 | x | x | x | x
O=C(NCc1cn2ccsc2n1)c1cccc(C(F)(F)F)c1 | i | 1 | 106 | -0.8 | x | x | -2
C#CCOCCOCCOCCNc1nc(N2CCN(C(=O)Cn3cc(CC(C)O)nn3)CC2)nc(N2CCN(C(=O)[C@H](CCCCN)n3cc(CCC(=O)O)nn3)CC2)n1 (stereo partly specified) | i | 0.64 | 108 | 0.0 | 0 | 86 | -1
CCc1ccc2nc(-c3cccc(C)c3)nc(SCC(=O)NCC3CCCO3)c2c1 (stereo unspecified) | i | 0.84 | 102 | -0.2 | -32 | 100 | -7

Going on with the list:
structure | HSV replic up | HSV replic up primary fold | RGS16-Gao | GALR2 agonist | INS promoter inh | INS promoter inh cell count | PKD1 kinase inh
Cc1[nH]n(-c2ccc([N+](=O)[O-])cc2)c(=O)c1C=NCCN1CCN(C(=O)c2cccc(F)c2)CC1 | i | 0.82 | 100 | -1.9 | 6 | 189 | 0
CCOC(=O)CSc1nnc(CSc2nc3ccccc3c(=O)[nH]2)n1-c1ccccc1 | i | 0.9 | 104 | -1.5 | -42 | 98 | -5
COc1cccc(CN(C)CC(=O)Nc2cccc(C(F)(F)F)c2)c1OC | i | 1 | 109 | x | -127 | 76 | -6
CCS(=O)(=O)Nc1c(C)n(C)n(-c2ccccc2)c1=O | i | 0.94 | 109 | -4.9 | -69 | 63 | -1
Cc1ccc(N(CC(=O)Nc2ccc(S(=O)(=O)N3CCOCC3)cc2)S(C)(=O)=O)cc1C | i | 0.91 | 99 | -1.1 | x | x | 1
CCOC(=O)c1[nH]c(C)c(C(=O)NC2CCCCCC2)c1C | i | 0.96 | 102 | -0.7 | 51 | 81 | -1
CCOc1ccc(CCNC(=O)CSc2cc(=O)n(C)c3ccc(Cl)cc23)cc1OCC | i | 1 | 100 | -1.8 | x | x | 2
C=CCOc1ccc(Br)cc1CNCCO | i | 0.96 | 99 | x | x | x | -7
CCCCC#Cc1ccc(C(=O)NNC(=O)Nc2ccccc2)o1 | i | 1 | 105 | x | x | x | x
CCNc1nc(NCC)nc(N/N=C/c2ccc(N(C)C)cc2)n1 | i | 1 | 91 | x | -41 | 30 | -10
CCS(=O)(=O)Nc1cccc(-c2ccc3nnc(C)n3n2)c1 | i | 0.85 | 112 | x | -36 | 151 | -2
COc1ccc(Cl)c(Cn2c(NCCCO)nc3c2c(=O)n(C)c(=O)n3C)c1 | i | 0.9 | 104 | -0.8 | -18 | 116 | -9
N#Cc1ccsc1NC(=O)COC(=O)c1cc(Br)ccc1O | i | 0.96 | 98 | x | x | x | x
CN(Cc1nccn1C)C(=O)CC1C(=O)NCCN1Cc1ccccc1C(F)(F)F (stereo unspecified) | i | 0.99 | 120 | x | x | x | 0
Cc1cc(C)cc(NC(=O)CCc2nc3ccccc3[nH]2)c1 | i | 0.89 | 105 | -2.2 | -11 | 117 | 3
Fc1ccc(-c2cc3nc(-c4ccccc4)cc(N4CCOCC4)n3n2)cc1 | i | 0.92 | 103 | -1.4 | 25 | 85 | -9
CC(C(=O)Nc1ccc(S(=O)(=O)N2CCCCC2)cc1)N1CCN(c2ccccn2)CC1 (stereo unspecified) | i | 0.75 | 98 | x | x | x | -4
CC(=O)CSc1nc2ccccc2o1 | i | 0.82 | 96 | -4.4 | 40 | 100 | -10
O=Cc1c(N2CCN(c3cccc(Cl)c3)CC2)nc2ccccn2c1=O | i | 0.81 | 112 | -1.8 | x | x | -9
Clc1ccc(-n2cc(COCc3ccccc3)nn2)cc1 | i | 1 | 103 | x | 26 | 158 | 6
Cc1cc(C)n(CCC(=O)N/N=C/c2ccccc2O)n1 | i | 0.93 | 106 | -1.6 | x | x | -11
Cc1cc(C(C)(C)C)cc(C)c1N | i | 0.95 | 119 | 0.2 | 15 | 63 | 3
CNC(=S)N/N=C/c1cn(CCOc2cccc(OC)c2)c2ccccc12 | i | 1.1 | 108 | -0.1 | 21 | 123 | -2
CCOCCCNC(=O)C(c1ccc(OC)cc1)N(Cc1cccs1)C(=O)CNC(C)=O (stereo unspecified) | i | 0.99 | 98 | x | -73 | 120 | 5
COC(=O)c1c(NC(=O)Cn2nc(C(F)F)cc2C(F)F)sc(C)c1C | i | 0.93 | 96 | -1.2 | -51 | 44 | 7

Random excerpt: two records from the list.
structure | HSV replic up | HSV replic up primary fold | RGS16-Gao | GALR2 agonist | INS promoter inh | INS promoter inh cell count | PKD1 kinase inh
Cc1cc(C(C)(C)C)cc(C)c1N | i | 0.95 | 119 | 0.2 | 15 | 63 | 3
O=Cc1c(N2CCN(c3cccc(Cl)c3)CC2)nc2ccccn2c1=O | i | 0.81 | 112 | -1.8 | x | x | -9

(further entries)
structure | HSV replic up | HSV replic up primary fold | RGS16-Gao | GALR2 agonist | INS promoter inh | INS promoter inh cell count | PKD1 kinase inh
CSC(=NS(=O)(=O)c1ccc(C)cc1)SC | i | 0.79 | 108 | -1.8 | 27 | 118 | 1
O=C1CSC(c2cccc([N+](=O)[O-])c2)N1c1ccccc1 (stereo unspecified) | i | 1 | 100 | x | 25 | 72 | -4
Cn1c(SCC(=O)NC2CCCCCC2)nnc1-c1cccs1 | x | x | 104 | -1.2 | 9 | 85 | 10
Nc1nc(-c2ccccc2)nn1C(=O)Cc1ccccc1 | i | 1 | 99 | -2.6 | -14 | 80 | -3
O=C(O)c1ncc(-c2ccccc2)cn1 | i | 1 | 165 | -1.5 | 28 | 88 | -7
CC1CCc2cc(F)cc3c(O)c(C(=O)NCC4CCCO4)c(=O)n1c23 (stereo unspecified) | i | 1 | 92 | -0.3 | 16 | 94 | -3
